Assay outcomes: PubChem BioAssay, National Center for Advancing Translational Sciences (NCATS)
NS1 inh: inhibitors of influenza NS1 protein function. S. cerevisiae slowed by influenza A NS1, growth recovery by OD600. 270,000 compounds, 0.4% hits. AID 2326. Potency, µM (series often up to 46.1 µM), without a hit: at the top dose activity, positive = more growth; note: actives are rising curves; nearly all actives have a fitted effect of over 50% in size
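Compounds were scored for reversing the slow growth caused by influenza A NS1 in S. cerevisiae, measured by optical density at 600 nm. Assay medium contained 2% galactose at pH 6.0; NS1-free yeast of the same strain were the positive control.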
LASV entry inh: Lassa virus entry inhibition | Lassa virus pseudotype entry inhibition, cell reporter; control for the full effect not named in the record | Potency, µM (titrated, usually from 37.9 µM), inactives show at the highest dose activity change, negative = inhibition, hits mostly inhibitors | 300,000 compounds, 1.2% hits | AID 540256; active means well fitted inhibition curve with a large enough effect; inconclusive means small, poorly fitted or top-dose-only effect, or effect the other way; inactive means flat fitted curve, though single readings scatter; tested in HEK293 cells; note: % is set by controls: 0 for no effect and ±100 for the full control effect; nearly all actives have a fitted effect of over 50% in size; luciferase read-out
MARV entry inh: Marburg virus entry inhibition; Marburg virus pseudotyped entry inhibition, cell reporter; control for the full effect not named in the record; about a third of the inactives were read at about 46 µM; Potency, µM (series often up to 37.8 µM), without a hit: top-dose activity change, negative = inhibition, actives largely listed as inhibitors; 300,000 compounds, 1.8% hits; AID 540276; active = well fitted inhibition curve with a large enough effect; inconclusive = small, poorly fitted or top-dose-only effect, or effect the other way; inactive = flat fitted curve, though single readings scatter; tested in HEK293 cells; about a fifth of its hits are not listed in these tables; note: % is set by controls: 0 for no effect and ±100 for the full control effect; luciferase read-out
Cruzain noTriton: cruzain (T. cruzi) inhibition without detergent. P25779. purified cruzain, Z-FR-AMC fluorescence, no detergent. Potency, µM, inactives show max response, negative = inhibition, actives largely listed as inhibitors. 200,000 compounds, 2.3% hits; active = well fitted curve in the direction sought with a large enough effect; inconclusive = small, poorly fitted or top-dose-only effect, or another doubt; inactive = no such curve, though single readings can be large; an effect the other way counts as inactive or inconclusive;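 note: plate controls were enzyme without inhibitor for no effect and buffer without enzyme for full effect; nearly all actives have a fitted effect of over 40% in size; top concentration of the series not given in the record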
Target sequence (P25779 123-467 limits assumed): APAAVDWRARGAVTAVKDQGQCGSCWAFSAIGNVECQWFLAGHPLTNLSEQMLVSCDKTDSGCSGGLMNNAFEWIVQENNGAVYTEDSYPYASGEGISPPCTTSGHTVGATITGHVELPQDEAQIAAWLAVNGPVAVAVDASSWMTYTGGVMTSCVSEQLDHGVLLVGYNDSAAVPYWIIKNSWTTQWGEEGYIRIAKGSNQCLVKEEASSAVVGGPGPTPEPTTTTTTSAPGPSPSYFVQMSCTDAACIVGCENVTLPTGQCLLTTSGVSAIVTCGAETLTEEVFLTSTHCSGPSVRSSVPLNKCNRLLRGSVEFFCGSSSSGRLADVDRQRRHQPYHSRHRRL
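Detergent-free condition (0.00005% Triton X-100) in acetate buffer pH 5.5 with DTT. 1.5 nM enzyme and compound were pre-mixed 15 min, then 2 uM Z-FR-AMC substrate added; reaction progress from fluorescence change between first and third reads (60 s).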
RE007 growth inh: less growth of the S. pombe RE007 Vpr strain | S. pombe RE007 Vpr strain, BacTiter-Glo ATP luminescence, 24 h; control for the full effect not named in the record | Potency, µM (top dose mostly 92.2 µM), for the others: top-dose activity change, negative = less growth | 360,000 compounds, 0.21% hits | AID 651644; active = well fitted falling curve with a large enough effect; inconclusive = small, poorly fitted or top-dose-only effect; inactive = no such curve, though single readings can be large or run the other way;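 note: % is set by controls: 0 for no effect and ±100 for the full control effect; nearly all actives have a fitted effect of over 50% in size; the assay follows cell death caused by Vpr and the record does not say whether a fall means rescue or toxicity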
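Fission yeast strain RE007, carrying one chromosomally integrated HIV-1 vpr copy, was seeded at OD 0.01 in PMG+AL medium with 23 nL pinned compound. After 24 h at 30 °C and 99% humidity, viability was read by BacTiter-Glo luminescence.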
SARS PLpro yeast: blocks SARS-CoV papain-like protease in a yeast assay | S. cerevisiae expressing SARS-CoV PLpro, growth rescue; control for the full effect not named in the record | Potency, µM (titrated, usually from 32.9 µM), inactives show at the highest dose activity, positive = growth rescue | 330,000 compounds, 0.19% hits; note: 0% is about no effect; nearly all actives have a fitted effect of over 55% in size; growth read by luminescence after 48 h
Cruzain inh Det: blocks cruzain activity in presence of Triton detergent | purified cruzain, Z-FR-AMC fluorescence, 0.01% Triton | Potency, µM, without a hit: max response, negative = inhibition, hits mostly inhibitors | 200,000 compounds, 0.43% hits | AID 1478; active = well fitted curve in the direction sought with a large enough effect; inconclusive = small, poorly fitted or top-dose-only effect, or another doubt; inactive = no such curve, though single readings can be large; an effect the other way counts as inactive or inconclusive;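 note: plate controls were neutral wells for no effect and buffer without enzyme for full effect; nearly all actives have a fitted effect of over 40% in size; top concentration of the series not given in the record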
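Purified cruzain (1.5 nM final) was preincubated with compounds for 15 min at room temperature in 100 mM sodium acetate pH 5.5, 5 mM DTT, 0.01% Triton X-100. Reaction started with 2 uM Z-FR-AMC; AMC fluorescence change over 60 s gave activity.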
2A StopGo: lowers the luciferase signal of an FMDV 2A StopGo reporter; human cells with a luciferase reporter of 2A StopGo recoding; control for the full effect not named in the record; Potency, µM (highest dose often 57.9 µM), without a hit: at the highest dose signal change, negative = less light; 410,000 compounds, 1.2% hits; AID 1159524; active = well fitted falling curve with a large enough effect; inconclusive = small, poorly fitted or top-dose-only effect; inactive = no such curve, though single readings can be large or run the other way; tested in HEK293T cells; note: % is set by controls: 0 for no effect and ±100 for the full control effect; nearly all actives have a fitted effect of over 45% in size; luciferase light after 4 h
Active calls of the source: *; ? = inconclusive; . = no result given; & = joins results of further samples; [ ] = remark or other dose. Unless noted, calls come from the whole dose curve; as a rule, active means well fitted rising curve with a large enough effect; inconclusive means small, poorly fitted or top-dose-only effect; inactive means no such curve, though single readings can be large or run the other way. Potency is the fitted concentration of half-maximal effect.

SMILES | NS1 inh | LASV entry inh | MARV entry inh | Cruzain noTriton | RE007 growth inh | SARS PLpro yeast | Cruzain inh Det | 2A StopGo
Cc1cc(NC(=O)COC(=O)c2c(C)noc2C)ccc1Br | -2% | 17%[46.1 µM] | ? | . | -6% | 1% | . | 23%
Cc1ccc2nc(-c3ccccc3N)[nH]c2c1 | -10% | ? | ? | . | ? | -5% | . | -50%
N[C@H](C(=O)O)c1cc(O)cc(O)c1 | ? | 49% | ? | -7%&3%&4% | . | . | 4.2%&-1.4%&-2.7% | -12%&-6%&-11%
CNC(=O)CN(c1ccc(C(C)C)cc1)S(C)(=O)=O | 1% | 16% | ? | 12% | 0% | 1% | 4.9% | 23%
CCn1c(=O)c(C)nn2c3ccccc3nc12 | -7% | 8% | -26% | -8% | 2% | 1% | -0.6% | -20%
COCCCn1c(SCC(=O)N(C)C)nnc1-c1ccccc1 | -8% | -1% | 18% | -6% | 9% | 5% | -2.2% | 14%
O=C(NC1C(=O)NNC1c1ccccc1)c1ccccc1 (stereo not drawn) | 6% | ? | ? | -7% | 15% | 1% | 0.4% | 24%
Cn1c(=O)c2cc(C(=O)Nc3cccc(C#N)c3)sc2c2ccccc21 | . | -17%[46.1 µM] | 5%[46.1 µM] | 2% | . | . | 4.1% | -8%
Cc1ccc([N+](=O)[O-])c2c1C(N1CC(C)OC(C)C1)C(C)(C)O2 (stereo not drawn) | . | 2%[46.1 µM] | ? | . | -4% | -5% | . | -22%
CCOc1ccc(S(=O)(=O)Nc2nc3ccccc3nc2-n2ccc(=NC(=O)c3cccs3)cc2)cc1 | 8% | -2% | 9% | 3% | 4% | -3% | -3.8% | -2%
CSCCC(NC(=O)c1ccc(Cl)cc1Cl)C(=O)OC(C)C(=O)NCc1ccco1 (stereo not drawn) | . | 4% | 18% | . | 15% | -6% | . | 4%
Cc1cc(C)c2c(=O)[nH]c(SCC(=O)N3CCCCC3)nc2n1 | ? | 23% | 2% | -1% | -4% | -2% | 0.1% | -6%
C#CCNC(=O)C1=C[C@H](c2csc3ccccc23)C[C@H](OCCCCO)O1 | -3% | . | . | . | -6% | -2% | . | -15%
O=C(CNC1CCCCCC1)Nc1ccccc1N1CCCCC1 | -37% | ? | ? | 6% | 3% | 2% | 5.6% | -14%
Cc1nc(C)c(C(=O)Nc2cccc(F)c2)s1 | -4% | 0%[46.1 µM] | 8%[46.1 µM] | . | 10% | -1% | . | 9%
Cc1ccc(CNS(=O)(=O)c2cn(C)cn2)cc1 | 3% | 3% | 19% | 6% | 4% | 3% | -0.3% | 22%
Cc1cccc(NC(=O)Cn2cccc2)c1 | -5% | 29%[14.3 µM] | 16% | 3% | -8% | 3% | 4.1% | 22%
S=C(Nc1ccccc1)c1nc2ccccc2s1 | 2% | 11% | ? | -29% | -2% | 17% | -2.6% | 71%[activator]
C=CCOc1ccc(/C=N/NC(=O)c2c(C)nc3ccc(Cl)cn23)cc1 | 28% | -27%[46.1 µM] | 3%[46.1 µM] | . | -16% | -1% | . | -4%
Cn1c(CNc2ccc(Cl)cc2)nnc1SCC#N | 5% | . | . | . | 0% | 0% | . | 1%
O=C(NCCc1ccc(Cl)cc1)c1ccc2c(c1)N(Cc1ccc(F)cc1)C(=O)CS2 | . | 0%[46.1 µM] | . | ? | . | . | 1.3% | ?
CC(=O)c1ccc(NC(=O)Nc2ccc([N+](=O)[O-])cc2)cc1 | -9% | 7% | ? | 10% | 16% | -5% | -11% | -2%
O=S(CC1CC1(Cl)Cl)CC1CC1(Cl)Cl (stereo not drawn) | 8% | 7% | 16% | -4% | 2% | -13% | -1.1% | -5%
CCOCCCNCc1ccc(OCc2ccccc2C)c(OC)c1 | -7% | . | . | . | -16% | 0% | . | 3%
COc1ccc2cnn(Cc3ccccc3)c(=O)c2c1OC | -3% | 17% | 1% | -3% | 1% | 13% | -3.4% | 0%
CC(C)OCCCn1c(SCC(=O)Nc2ccc(F)cc2)nc2c(sc3ccccc32)c1=O | . | 21%[46.1 µM] | . | 2% | . | . | 3.0% | -4%
Cc1ccn2c(CNC(C)c3cn(C)nc3C)c(C(=O)N3CCCCCC3)nc2c1 (stereo not drawn) | 11% | -3% | ? | . | -1% | -6% | . | -10%
CCn1c(=NC(=O)CN2C(=O)CCC2=O)sc2c(OC)ccc(OC)c21 | 8% | . | . | -2% | -2% | 4% | 6.9% | -7%
O=[N+]([O-])c1ccc2nnn(O)c2c1 | 9% | 2% | -5% | -11% | 1% | 19% | -5.9% | -14%
COC(=O)c1ccc(NC(=O)CN(C)S(=O)(=O)c2ccc(OC)c(C)c2)cc1 | -6% | -24%[14.3 µM] | -21% | 4% | -1% | 4% | -0.8% | -22%
O=C(COc1ccc(-c2nnco2)cc1)Nc1c(F)cccc1F | . | 16% | -12%[46.1 µM] | . | ? | -1% | . | 16%
COc1ccc(C(=O)Nc2ccncc2)cc1OC | 2% | 14% | 0% | -2% | 7% | -5% | -0.8% | .
Cc1cc(C)n(-c2nc3ccccc3nc2N2CCN(C(=O)c3ccccc3)CC2)n1 | -5% | -4% | -27%[46.1 µM] | 19% | 2% | -3% | -2.2% | -2%
CNS(=O)(=O)c1cccc(C(=O)OC2CCCCC2=O)c1 (stereo not drawn) | 5% | 4% | -4% | 6% | 0% | 8% | -0.7% | -21%
Cn1c(NCCN)nc2c1c(=O)n(Cc1ccccc1)c(=O)n2C | . | -4%[46.1 µM] | -7%[46.1 µM] | -19% | . | . | -2.5% | 1%
COc1cc(-c2noc(C3CCCN(C(=O)c4c(F)cccc4F)C3)n2)cc(OC)c1OC (stereo not drawn) | -2% | . | . | . | -5% | -3% | . | -27%
Cc1ccnc(N/N=C/c2ccccc2)n1 | 2% | ? | ? | -13% | -7% | 3% | -1.5% | -4%
O=C(CN1CCN(Cc2ccccc2)CC1)NCc1ccc(Cl)cc1 | 7% | -29% | -27% | . | 1% | 4% | . | -22%
O=C(Nc1ccccc1N1CCOCC1)c1cccc(F)c1 | . | . | 1%[46.1 µM] | . | 2% | -10% | . | 1%
COc1ccc(C(=O)COC(=O)C(CCSC)NS(=O)(=O)c2ccc(Cl)cc2)cc1 (stereo not drawn) | -68% | ? | -2% | 21% | 25% | -29% | -9.3% | ?
CCN1C(=O)/C(=C/c2cccs2)N(C)C1=S | 2% | 13% | 9% | -3% | -4% | 11% | -3.5% | 3%
CC(=O)Oc1ccc(/C=N/NC(=O)CCSc2ccccc2)cc1 | . | ? | 9%[46.1 µM] | . | 1% | 0% | . | -8%
FC(F)(F)c1ccccc1N/N=C/c1cccnc1 | -49% | ? | -13%[46.1 µM] | . | -15% | -7% | . | 0%
O=C(c1ccccc1)c1ccc(OCC(O)CN2CCCCC2)cc1 (stereo not drawn) | 3% | -6% | -18% | -2% | 10% | 7% | 5.4% | -15%
CCOc1ccc(-n2cc(-c3ccccc3)c3c(NC4CCCCC4)ncnc32)cc1 | . | 5%[46.1 µM] | . | -20% | . | . | 0.1% | -12%
Clc1ccc(-c2cnc3n2CCCCC3)cc1 | . | -16%[46.1 µM] | ? | . | -11% | -4% | . | -28%
CC(=O)c1sc(-c2ccc(Cl)cc2)nc1C | -5% | ? | ? | . | -23% | 0% | . | 48%[activator]
COc1ccc(-c2nc(CSCC(=O)NC3CCCc4ccccc43)c(C)o2)cc1OC (stereo not drawn) | -5% | -28% | ? | ? | -10% | -18% | -6.0% | ?
CC1Cc2ccccc2N1C(=O)Cn1cc([N+](=O)[O-])cn1 (stereo not drawn) | -1% | 1% | -11%[46.1 µM] | -11% | 14% | 2% | 6.1% | -14%
S=c1[nH]nc(Cc2sc(-c3ccccc3)nc2-c2ccccc2)o1 | -53% | -2% | ? | -10% | -7% | 2% | -8.4% | -5%
O=[N+]([O-])c1cc2c(cc1CN1CCN(CCOCCO)CC1)OCO2 | 2% | . | . | . | 0% | -1% | . | -5%
COc1ccc(C(c2c(C)n(C)n(-c3ccccc3)c2=O)c2c(C)n(C)n(-c3ccccc3)c2=O)cc1OC | 7% | . | . | . | 12% | 2% | . | -14%
COc1cc(NC(=S)Nc2ccccn2)cc(OC)c1OC | . | 7% | 15%[46.1 µM] | . | -4% | 1% | . | -10%

Structural class, the entries above containing fluorine (seven)
SMILES | NS1 inh | LASV entry inh | MARV entry inh | Cruzain noTriton | RE007 growth inh | SARS PLpro yeast | Cruzain inh Det | 2A StopGo
Cc1nc(C)c(C(=O)Nc2cccc(F)c2)s1 | -4% | 0%[46.1 µM] | 8%[46.1 µM] | . | 10% | -1% | . | 9%
O=C(NCCc1ccc(Cl)cc1)c1ccc2c(c1)N(Cc1ccc(F)cc1)C(=O)CS2 | . | 0%[46.1 µM] | . | ? | . | . | 1.3% | ?
CC(C)OCCCn1c(SCC(=O)Nc2ccc(F)cc2)nc2c(sc3ccccc32)c1=O | . | 21%[46.1 µM] | . | 2% | . | . | 3.0% | -4%
O=C(COc1ccc(-c2nnco2)cc1)Nc1c(F)cccc1F | . | 16% | -12%[46.1 µM] | . | ? | -1% | . | 16%
COc1cc(-c2noc(C3CCCN(C(=O)c4c(F)cccc4F)C3)n2)cc(OC)c1OC (stereo not drawn) | -2% | . | . | . | -5% | -3% | . | -27%
O=C(Nc1ccccc1N1CCOCC1)c1cccc(F)c1 | . | . | 1%[46.1 µM] | . | 2% | -10% | . | 1%
FC(F)(F)c1ccccc1N/N=C/c1cccnc1 | -49% | ? | -13%[46.1 µM] | . | -15% | -7% | . | 0%
